VACV Venus inh – qHTS for Stage-Specific Inhibitors of Vaccinia Orthopoxvirus: Venus Reporter Primary qHTS | AID 720580, 2013 | hit rate 0.46% among 330,000 | Vaccinia virus Venus reporter expression, fluorescence | Potency, µM (series often up to 36.5 µM), inactives show at the top dose activity change, negative = inhibition, hits mostly inhibitors; active means well fitted inhibition curve with a large enough effect; inconclusive means small, poorly fitted or top-dose-only effect; inactive means no such curve, though single readings can be large or run the other way; tested in A549 cells; further: nearly all actives have a fitted effect of over 30% in size; inactives centre near -10
Vaccinia mCherry – qHTS for Stage-Specific Inhibitors of Vaccinia Orthopoxvirus: mCherry Reporter Primary qHTS | Potency, µM (series often up to 36.5 µM), inactives show at the highest dose activity change, negative = inhibition, hits mostly inhibitors | hit rate 0.63% among 310,000 | AID 720579, 2013 | Vaccinia virus mCherry reporter infection, fluorescence; about a quarter of the inactives have no number; active = well fitted inhibition curve with a large enough effect; inconclusive = small, poorly fitted or top-dose-only effect; inactive = no such curve, though single readings can be large or run the other way; tested in A549 cells; further: nearly all actives have a fitted effect of over 35% in size; inactives centre near -10
Starred values were filed as active, the others as inactive; i = inactive; ? = inconclusive; . = no result given; [ ] = remark or other dose. On the % scale 0 is the no-effect control and ±100 the full control effect; potency means the concentration at half of the fitted maximal effect. Random draw from the library, and some 0.86% of all compounds hit somewhere here.

mol	VACV Venus inh	Vaccinia mCherry
Cc1cnc(NC(=O)CC(C)c2ccccc2)s1 (stereo not drawn)	-21%	-13%
CCC(C)(C)NC(=O)C(c1ccccc1)N(C(=O)c1csnn1)C1CC1 (stereo not drawn)	-9%	-19%
Cc1ccc(NC(NC(=O)c2cccs2)C(Cl)(Cl)Cl)cc1 (stereo not drawn)	-16%	-9%[1.46 µM]
CCC(=O)Nc1ccc(NC(=S)NC(=O)/C=C/c2ccco2)cc1	-21%	-7%
Nc1c(C(=O)Nc2nccs2)sc2nc(-c3cccs3)cc(C(F)(F)F)c12	28%	.
COc1cc(/C=C2\C(=O)NC(=O)N(c3ccccc3)C2=O)cc(OC)c1OC	-6%	.
CN(Cc1ccccc1)C(=O)c1cccc(NC(=O)Cc2ccc(NC(=O)C3CCN(S(=O)(=O)c4cccc([N+](=O)[O-])c4)CC3)cc2)c1	-16%	i
CCOC(=O)c1cnc2nc(NCc3ccc(OCC)cc3)[nH]n2c1=O	-12%[7.34 µM]	-7%[7.34 µM]
Cc1c(N2C(=O)C3C4C=CC(C4)C3C2=O)c(=O)n(-c2ccccc2)n1C (stereo not drawn)	-3%	i
CC(=O)N1c2ccc(S(=O)(=O)NCCC(=O)NC3CCCC(C)C3C)cc2CC1C (stereo not drawn)	-16%	-18%
Fc1cccc(Nc2ncnc3c2cnn3-c2ccccc2)c1	?	?
CCC(=O)c1ccc(OCC(=O)OCC(=O)N2CCc3ccccc3C2)cc1	0%	-14%
CCOC(=O)Cn1c(=O)n(C2CCCCC2)c2nc(-c3cccc(C)c3)nc(C(N)=O)c21	-3%	1%
CCCCOC(=O)C1CN(c2ccccc2)N=C1C(=O)OCC (stereo not drawn)	-4%	-21%
CC12CN3CCN(C1)CC(C)(C3)C2=NO	-12%	-15%
Cc1c(C(=O)Nc2ccc(Cc3ccncc3)cc2)cccc1[N+](=O)[O-]	-21%	-11%
O=c1c2ccccc2nc(SCCN2CCOCC2)n1CCc1ccccc1	0%	i
Cc1nc(C)c(-c2csc(Nc3ccc(O)c(C(=O)O)c3)n2)s1	-6%	i
O=C(NC(=S)Nc1cc(S(=O)(=O)N2CCOCC2)ccc1O)c1ccco1	-17%	i
CC(=O)Nc1nonc1-c1nc2ccccc2n1C	1%	-20%
CCCC(C)NC(=O)COC(=O)c1ccc2c(c1)C(=O)N(Cc1ccco1)C2=O (stereo not drawn)	-4%	i
CCn1cc(C(=O)NCc2ccccc2)c(=O)c2cc(S(=O)(=O)N3CCc4ccccc4C3)ccc21	-25%	-9%
CCOc1ccc(OCC)c(NC(=O)c2nnn(CC(=O)Nc3cc(C)cc(C)c3)c2N)c1	?	?
COc1ccc(C(=O)NNC(=O)Cc2ccc(-c3ccccc3)cc2)cc1OC	-8%	-6%
CCN(c1ccccc1)S(=O)(=O)c1cccc(C(=O)OCC(=O)Nc2ccc(NC(C)=O)cc2)c1	-21%	-26%
CCN1CCN(C(=O)c2ccc(OC3CCN(CCc4ccccc4)CC3)cc2)[C@@H](C)C1=O	-11%	-10%
CCCOc1ccc(CNC(=O)Cn2cc3c(n2)-c2c(oc(C(=O)N4CCOCC4)c2C)CC3)cc1	-17%	-21%
Cc1csc(NC(=O)c2ccc3c(c2)OCO3)n1	0%	-8%
CCOc1ccc(C(=O)C(C)OC(=O)Cn2cnc3c2c(=O)n(C)c(=O)n3C)cc1 (stereo not drawn)	-3%	-10%
COc1cccc(C(O)CC(N)=O)c1 (stereo not drawn)	-11%	.
CC(C)C[C@H](NC(=O)c1[nH]cnc1C(=O)N[C@@H](Cc1ccccc1)C(=O)OC(C)(C)C)C(=O)OC(C)(C)C	?	?
O=C(Cc1ccc(-c2ccccc2)cc1)NCCS(=O)(=O)N1CCN(c2cccc(Cl)c2)CC1	-9%	-11%
CCOc1ccc(CNC(=O)c2ccc3nc(CC)c(CC)nc3c2)cc1	-8%	-18%
Cc1ccc([C@@H]2[C@@H]3C(=O)N(C)C(=O)[C@@H]3[C@]3(C)C(=O)N(CC4CC4)CC(=O)N23)o1	-14%	i
Cc1ccc(C)c(NC(=O)c2cc(S(=O)(=O)NCCC3=CCCCC3)ccc2F)c1	?	-7%
CSc1cccc(NC(=O)CNC(=O)C2CCCCC2)c1	-1%	-9%
c1ccc(OCc2ccc(CCCN3CCOCC3)cc2)cc1	-14%	i
CC(=NCCCN1CCCCC1)c1c(O)n(Cc2ccccc2)c(=O)[nH]c1=O	-13%	i
COC(=O)c1cccc(NC(=S)Nc2ccc(Cl)c(Cl)c2)c1	-19%	i
CC1NC(=S)N(C2CCCCC2)C1=O (stereo not drawn)	-1%	-13%
COc1ccccc1CNc1cccc(C)n1	-6%	?
COc1ccc(NS(=O)(=O)c2cccc(NC(=O)NCCCl)c2)cc1	4%	0%
CCOC(=O)COc1cc(Br)c(/C=N/Nc2ccccc2)cc1OC	-9%	-19%
COc1ccc(/C=C/C(=O)c2ccc(NC3=NCCCS3)cc2)cc1OC	?	-28%
CCCNc1nc2nc3ccccn3c(=O)c2cc1C(=O)NCCN1CCOCC1	-3%	-7%
O=C(Nc1ccc2c(c1)OCCO2)C(c1ccccc1)n1c(=O)c(-c2cc3ccccc3[nH]2)nc2ccccc21 (stereo not drawn)	-28%	?
Nc1ccccc1C(=O)OCc1ccc([N+](=O)[O-])cc1	3%	1%
CC(C)Cc1ccc(CN2CCCC(NC(=O)c3cccc(-n4cnnc4)c3)C2)cc1 (stereo not drawn)	-29%	?

In the list so far, these contain fluorine.
mol	VACV Venus inh	Vaccinia mCherry
Nc1c(C(=O)Nc2nccs2)sc2nc(-c3cccs3)cc(C(F)(F)F)c12	28%	.
Fc1cccc(Nc2ncnc3c2cnn3-c2ccccc2)c1	?	?
Cc1ccc(C)c(NC(=O)c2cc(S(=O)(=O)NCCC3=CCCCC3)ccc2F)c1	?	-7%

Continuation.
mol	VACV Venus inh	Vaccinia mCherry
CC1(c2ccc(Cl)cc2)NC(=O)N(CC(=O)NC2CCCCC2)C1=O (stereo not drawn)	3%	?
CCOC(=O)c1ccccc1NC(=O)c1ccc(NS(C)(=O)=O)cc1	-8%	-22%
O=C1NC(=O)c2c(Br)c(Br)c(Br)c(Br)c21	-12%	i
O=C(COC(=O)c1ccccc1NCCO)NCCc1ccccc1	-11%	i
CC(=O)N1CCN(c2ccc(NC(=O)c3cccc(OCc4ccccc4)c3)cc2)CC1	-14%	.
N#Cc1ccccc1OCC(=O)Nc1nc(-c2ccccn2)cs1	?	?
CCOC(=O)c1c(C)c(C(=O)N(C)C2CCCCC2)c(C)n1C	-3%	-14%
CCn1c(=N)n(CCOc2ccc(OC)cc2)c2ccccc21	-11%	i
CN(Cc1c(F)cccc1Cl)C(=O)c1cccc(S(=O)(=O)NCc2ccccc2)c1	?	-21%
O=C(c1ccc(-c2ccccc2)cc1)C1CCCN(C(=O)c2cncs2)C1 (stereo not drawn)	-11%	i
CC(C)c1ccc(-c2nnc(SCC(=O)NC3CC3)n2C)cc1	-20%	i
C/C(CC(=O)N1CCN(C=O)CC1)=N\NC(=O)c1cccc([N+](=O)[O-])c1	-4%	7%
COc1ccc(NC(=O)c2cc(-c3cc(Cl)ccc3OC)n[nH]2)cc1OC	?	-22%
COc1ccc(OC)c(S(=O)(=O)NCC(c2ccco2)N2CCc3ccccc32)c1 (stereo not drawn)	-18%	-15%
Cc1noc(C)c1CSc1ncnc2sc(C)c(C)c12	-11%	.
COc1ccc(OC(=O)c2nc(SCc3ccccc3C)ncc2Cl)cc1	9%	1%
C1CN(CC2CCN(c3nc4nonc4nc3N3CCSCC3)CC2)CCO1	-5%	-1%
COc1ccc(S(=O)(=O)N2CCN(C(=O)c3cccc(S(=O)(=O)N4CCCC4)c3)CC2)cc1	-25%	0%
O=S(=O)(Nc1ccccc1)c1ccc(-c2csnn2)cc1	-3%[7.34 µM]	i[7.34 µM]
CCN(C(=O)COC(=O)CCc1c[nH]c2ccccc12)c1c(N)n(Cc2ccccc2)c(=O)[nH]c1=O	-20%	-20%
O=C(Nc1ccccc1)Nc1nncs1	-13%	-1%
COc1ccc(-c2ccc(C(=O)NCc3ccncc3)c3occc23)c(C)c1	-17%	-25%
CCOC(=O)c1ccc(S(=O)(=O)N2CCN(Cc3cc4c(cc3O)OCO4)CC2)cc1	?	?
CCCN(C(=O)c1cn(CC(C)C)c(=O)c2cc(OC)c(OC)cc12)c1cccc(C)c1	-11%	-18%
N#Cc1c(SCc2ccc(Cl)cc2)sc(C(=O)c2ccccc2)c1N	-15%	.
CCOC(=O)CSc1nc2sc3c(c2c(=O)n1CC)CCCC3	-8%	-4%
O=C(Cn1c(=O)n(Cc2ccc3c(c2)OCO3)c(=O)c2oc3ccccc3c21)Nc1ccc(F)cc1	-13%	-7%
O=C(CSc1nc2ccccc2c(=O)n1-c1ccccc1)NCc1ccco1	-20%	.
Cc1ccnc(-n2c(C)cc(/C=N/NC(=O)COc3cccc4cccnc34)c2C)c1	-5%	i
O=C(N/N=C/c1c[nH]c2ccccc12)c1ccn(Cc2ccc(Cl)cc2Cl)n1	-3%	.
Cc1ccc(C)c(OCC(=O)Nn2c(C)nc3ccccc3c2=O)c1	-9%	.
CCC1(CC)Cc2ccccc2C(CC(=O)N2CCOCC2)=N1	-3%	-7%
Cc1ccc([N+](=O)[O-])cc1NC(=O)c1ccccc1	-14%	-9%
O=C(NCc1ccccc1)c1nc[nH]c1C(=O)N1CCc2ccccc2C1	-18%	?
CCN1CCN(C(c2ccc(F)cc2)c2nnnn2Cc2cccs2)CC1 (stereo not drawn)	-14%	-2%
COc1cccc(COc2ccc3c(C)cc(=O)oc3c2)c1	-13%	-24%
CCOc1ccc(NC(=S)N=Nc2c(O)[nH]c3ccccc23)cc1	-16%	-20%
CC1=C(N2CCCCC2)CCC1=O	-2%	i
COc1ccc(C2=NOC(C(=O)N(C)Cc3ccccc3)C2)cc1 (stereo not drawn)	-14%	i
O=C(NNC(=O)C12CC3CC(CC(C3)C1)C2)c1cccc([N+](=O)[O-])c1	-5%	i

6 entries from above, with two lines to a compound.
Sequence of screens: VACV Venus inh	Vaccinia mCherry
O=C(NCc1ccccc1)c1nc[nH]c1C(=O)N1CCc2ccccc2C1
    -18%	?
CCOc1ccc(NC(=S)N=Nc2c(O)[nH]c3ccccc23)cc1
    -16%	-20%
CCN1CCN(C(c2ccc(F)cc2)c2nnnn2Cc2cccs2)CC1 (stereo not drawn)
    -14%	-2%
O=C(NNC(=O)C12CC3CC(CC(C3)C1)C2)c1cccc([N+](=O)[O-])c1
    -5%	i
CC1=C(N2CCCCC2)CCC1=O
    -2%	i
COc1cccc(COc2ccc3c(C)cc(=O)oc3c2)c1
    -13%	-24%

Next structures.
mol	VACV Venus inh	Vaccinia mCherry
Cc1occc(=O)c1OC(=O)Nc1ccccc1	-21%	.
O=C(c1ccc(Cl)s1)N1CCN(c2ccccc2)CC1	-3%	i
CN(C)C(=O)[C@@H]1C[C@@H](Sc2nc3ccccc3[nH]2)CN1Cc1ccnc2ccccc12	0%	-3%
CCC(C)C1C(C#N)=C(N)Oc2n[nH]c(C)c21 (stereo not drawn)	-10%	-23%
Cc1ccc(NC(=O)NC2CC(=O)N(c3ccc4c(c3)OCCO4)C2)cc1F (stereo not drawn)	-16%	-5%
CCOc1cc(/C=C2\C(=N)N3N=C(C)SC3=NC2=O)ccc1OCCOc1ccccc1	-3%	-3%
O=C(C1CCN(S(=O)(=O)c2ccccc2F)CC1)N1CCc2ccccc2C1	-4%	-14%
Cc1c(C2=CCN(S(=O)(=O)c3ccc(Cl)cc3)CC2)c2ccccc2n1CC(=O)N1CCCC1	-21%	-16%
CCOC(=O)Cn1c(CN2CCN(c3cccc(Cl)c3)CC2)nc2c1c(=O)[nH]c(=O)n2C	-26%	-29%
CCOc1ccccc1C(=O)Nc1c[nH]c(=O)[nH]c1=O	-15%	i
COc1ccccc1CNC(=O)CN(C)c1nn2c(=O)cc(C)nc2s1	-5%	-3%
COc1ccc(NC(=S)Nc2ccc3snnc3c2)cc1	-13%	-8%
CCOc1c2ccc(C(=O)NCCc3cccs3)cc2nn1CC	-15%	i
CN(Cc1cccc(Cl)c1Cl)c1ccc(S(=O)(=O)N2CCCCC2)cc1[N+](=O)[O-]	-15%	0%
CN1C[C@@H]2[C@@H]3C(=O)N(Cc4ccccc4)C(=O)[C@@H]3[C@](C)(C1=O)N2C(=O)c1ccc(F)cc1	-1%	i
CC1(C)CC2(CCO1)N1CC3(C)CN2CC(C)(C1)C3=O (stereo not drawn)	-4%	-13%
O=C(Nc1ccc2c(c1)OCCO2)c1ccc(CN2CCOCC2)cc1	-16%	.
O=C1OCCC1(c1ccccc1)c1ccccc1	1%	-27%

From PubChem
